Compound activity deposited in PubChem BioAssay by National Center for Advancing Translational Sciences (NCATS).
TRPV1 potentiator – potentiators of human vanilloid receptor 1 (TRPV1); Q8NER1; 320,000 tested, 0.02% active; potentiation, % at 8.33 µM; TRPV1-expressing cells, Fluo-8 calcium influx, capsaicin EC20 potentiation; host cell line not named in the record; control for the full effect not named in the record; active means potentiation above 80%; inconclusive means 30% to 80%; inactive means below 30%; also: 0% is about no effect
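TRPV1-expressing cells were cultured overnight at 35.5C and loaded with Fluo-8 calcium dye for 40 to 90 min at room temperature. After a 10 s baseline, compound was added and calcium influx was read kinetically for 3 min (ex 480/em 520 nm).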
TRPML1 blocker – human mucolipin-1 channel inhibition | Q9GZU1 | TRPML1-inducible cells, Ca2+ dye fluorescence, FDSS; active compounds read low; inhibition of EC80 agonist-evoked calcium signal | activity change, negative = inhibition, % (test concentration not listed) | 390,000 tested, 0.02% active | AID 624415; in the data active means activity change below about -50%; inconclusive means about -30% to -50%; inactive means above about -30%;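 also: stimulus is agonist 54-4 at its EC80 concentration; % is scaled to controls: 0 for no effect and ±100 for the full control effect; compound concentration not given in the record; the text of the record puts the active cut at -80%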
Target sequence (Q9GZU1 whole entry, looked up): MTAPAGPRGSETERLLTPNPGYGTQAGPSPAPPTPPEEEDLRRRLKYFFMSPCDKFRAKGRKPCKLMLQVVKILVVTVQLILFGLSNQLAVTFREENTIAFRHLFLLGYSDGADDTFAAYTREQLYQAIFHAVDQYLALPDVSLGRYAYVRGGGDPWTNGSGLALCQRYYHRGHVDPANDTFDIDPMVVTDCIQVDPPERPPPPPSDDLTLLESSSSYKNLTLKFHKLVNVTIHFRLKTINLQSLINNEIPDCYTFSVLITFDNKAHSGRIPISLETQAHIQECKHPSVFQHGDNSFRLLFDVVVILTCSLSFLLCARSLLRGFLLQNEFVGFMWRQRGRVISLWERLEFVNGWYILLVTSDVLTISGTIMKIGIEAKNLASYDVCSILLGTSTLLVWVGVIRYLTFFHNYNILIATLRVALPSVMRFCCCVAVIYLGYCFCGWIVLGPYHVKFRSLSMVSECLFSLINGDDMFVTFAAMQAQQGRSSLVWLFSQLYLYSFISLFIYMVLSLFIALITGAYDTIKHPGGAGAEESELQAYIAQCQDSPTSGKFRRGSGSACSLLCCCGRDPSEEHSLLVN
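Calcium fluorescence in TRPML1-DL cells induced overnight with Tet: a 110 s read after compound pin addition, then a 110 s antagonist read after challenge with 54-4 at 4 uM final (EC80).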
TRPML1 ag – agonists of human TRPML1 channel; Q9GZU1; TRPML1-expressing cells, Ca2+ dye fluorescence, FDSS; host cell line not named in the record; reference of the full effect not given here; activation, % (concentration not given with the values); 410,000 tested, 0.12% active; AID 624414; in the data active = activation above about 50%; inconclusive = about 30% to 50%; inactive = below about 30%; also: 0% is about no effect; the text of the record puts the active cut at 80%
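Calcium fluorescence on an FDSS kinetic reader gave the read-out. Tet-induced TRPML1-DL cells were plated overnight, dye-loaded (Ca8 with quencher, 45-90 min, room temperature, dark), then read 110 s after compound addition, and again 110 s after 4uM final 54-4 (EC80).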
ClpP mod – qHTS Assay for Activators of ClpP; purified B. subtilis ClpP, FRET peptide cleavage, 20 min; Potency, µM (series often up to 57.5 µM), inactives show at the top dose activity change, negative = active; ATP-dependent Clp protease proteolytic subunit (Bacillus subtilis (strain 168)), P80244; 340,000 tested, 1.9% active; active = well fitted falling curve with a large enough effect; inconclusive = small, poorly fitted or top-dose-only effect; inactive = no such curve, though single readings can be large or run the other way; also: potency is read from the fitted curve at half-maximal effect; the source files actives as falling curves though it sought activators and does not explain the sign; nearly all actives have a fitted effect of over 65% in size; many hits overshoot -100%
Target sequence (P80244 whole entry, looked up): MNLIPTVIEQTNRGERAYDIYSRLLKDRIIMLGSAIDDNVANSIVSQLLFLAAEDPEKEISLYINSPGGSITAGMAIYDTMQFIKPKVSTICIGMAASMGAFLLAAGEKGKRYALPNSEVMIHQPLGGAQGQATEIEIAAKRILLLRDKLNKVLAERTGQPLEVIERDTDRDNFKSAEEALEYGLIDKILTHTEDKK
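FRET quenching reversal measured ClpP activation: 10 microg/mL B. subtilis ClpP at pH 8 with the FRET-FV decapeptide, read at 430 nm after 320 nm excitation. The 20-min minus 0-min signal was scaled between DMSO/no-enzyme wells and ADEP (5.8 microM final).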
Sfp inh – blocks B. subtilis Sfp PPTase activity | Q9F4F7 | Biochemical Sfp PPTase activity, qHTS | Potency, µM, for inactives: max response, negative = inhibition, hits mostly inhibitors | 310,000 tested, 3.5% active | AID 1490; active = well fitted inhibition curve with a large enough effect; inconclusive = small, poorly fitted or top-dose-only effect, or another doubt; inactive = no such curve, though single readings can be large or run the other way;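 also: the enzyme is Sfp with the accession as filed and its product quenches rhodamine fluorescence; potency is read from the fitted curve at half-maximal effect; 0% = enzyme reaction without inhibitor and -100% = no enzyme wells; top concentration of the series not given in the record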
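Compounds were incubated with enzyme (final 15 nM) for 15 min at room temperature before substrate addition started the reaction. Fluorescence at 525 nm excitation, 598 nm emission was recorded immediately and after 30 minutes.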
PINK1 expr mod – PINK1 expression modulation. PINK1 immunofluorescence, high-content cytometry, 24 h. 410,000 tested, 0.2% active. Potency, µM (highest dose often 76.6 µM), for the others: at the highest dose activation (PINK1 increase), hits mostly activators; active = well fitted activation curve with a large enough effect; inconclusive = small, poorly fitted or top-dose-only effect; inactive = flat fitted curve, though single readings scatter; cell line not stated here;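 also: potency is read from the fitted curve at half-maximal effect; % of control where 0% means no effect; nearly all actives have a fitted effect of over 65% in size; a mitochondrial uncoupler was the plate control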
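Stable cell line, 250 cells/well, 12 h attachment; compounds pinned at 5 concentrations, 24 h; CCCP control. Fixed with nuclear dye, primary antibodies 12 h at 10 degrees C, secondary plus cell stain; laser-scanning cytometer read.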
Menin MLL FP FL – displaces fluorescein MLL peptide from human menin; FP activity change, % at 61.4 µM; 290,000 tested, under 10 active; Fluorescence polarization, fluorescein-MLL peptide displacement from menin; inconclusive = falling polarisation curve, or a change in total fluorescence; inactive = total fluorescence flat and polarisation flat or rising; no compound was filed as active; the % refers to the polarisation; negative = inhibition;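 also: % of control where 0% means no effect; inhibitors lower the polarisation; unlabelled MLL peptide was the positive control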
An asterisk follows results filed as active; ? = inconclusive; · = not tested or not shown; [ ] = dose if it differs, or a comment.

SMILES	TRPV1 potentiator	TRPML1 blocker	TRPML1 ag	ClpP mod	Sfp inh	PINK1 expr mod	Menin MLL FP FL
CCOc1ccc(CN2CCNC(=O)C2CC(=O)N(C)C2CCCCC2)cc1 (configuration not stated)	-4	4	-0.2	-4.9%	16%	-1.6%	0.4
Cc1ccc2cc(CN(c3ccc(C)c(C)c3)S(C)(=O)=O)c(=O)[nH]c2c1	4	20	0.2	·	-11%	2.7%	3.6
COc1ccc(CCn2cnc3c([nH]c4ccccc43)c2=O)cc1	3	-11	-0.5	-9.1%	1%	2.6%	1.3
CC(NC(=O)C1CCC(=O)N1Cc1ccccc1Cl)c1ccccc1 (configuration not stated)	-21	4	0.1	-0.8%	8%	2.0%	9.7
COc1cc(/C=C/CN2CCC(Oc3ccc(C(=O)N4CCCC4)cc3)CC2)ccc1O	-4	6	-1.7	-5.4%	5%	-0.1%	2.8
COc1cccc(C(=O)NC(=S)Nc2ccccc2N2CCCC2)c1	-5	-3	-1.0	·	25µM*	6.0%	-0.4
CC(=O)C(Cc1ccc(Cl)nc1)Cc1ccc(Cl)nc1	-4	-5	-0.7	·	13%	-0.6%	-7.2
CC(C)CN(C(=O)Cn1c(C(F)(F)F)nc2ccccc21)C1CCS(=O)(=O)C1 (configuration not stated)	9	11	1.1	-3.9%	·	-1.2%	·
CC(=O)Nc1ccc(-c2sc(Nc3cccc4ccccc34)n[n+]2-c2ccccc2)cc1	10	-17	-0.5	1.9%	-24%	1.8%	8.4
COc1ccc(/C=C2\C(=N)N3N=C(CC(=O)N4CCOCC4)SC3=NC2=O)cc1	-6	-7	0.9	-3.0%	9%	-0.8%	6.9
Cc1cccn2c(=O)c(/C=C(\C#N)C(N)=O)c(N3CCN(c4cccc(Cl)c4)CC3)nc12	-13	13	0.3	-12%	-11%	-1.5%	11
O=C(Nc1cc2c(cc1C(=O)O)OCCCO2)c1ccc(F)cc1F	2	2	-1.1	-0.4%	20%	-1.1%	-0.3
Cc1ccc(S(=O)(=O)N2CCOCC2)cc1C(=O)Nc1ccc2c(c1)OCCO2	-21	19	-0.5	-0.3%	·	0.0%	·
O=S(=O)(c1cc(Cl)ccc1Cl)N1CC2CCCN2c2ccc(C(F)(F)F)cc21 (configuration not stated)	9	-5	12	-1.2%	7%	2.1%	6.2
COc1cccc(NC(=O)CSc2nc3c(sc4ccccc43)c(=O)n2CCN(C)C)c1	11	-4	3.5	·	13%	1.2%	-2.5
CCc1ccc(C(=O)c2cn(CC(=O)Nc3ccc4c(c3)OCCO4)c3ccc(C)cc3c2=O)cc1	·	6	0.2	1.9%	·	4.3%	·
Cc1onc(-c2ccccc2)c1C(=O)NCc1ccc2c(c1)OCO2	-4	-1	-0.5	-0.1%	-1%	-3.8%[38.3 µM]	1.5
CCc1nc2ccc(C(=O)NCc3ccc(OC)cc3)cn2c1N(CCC(C)C)CCN(C)C	·	·	0.9	-2.7%	·	-0.1%	·
COC(=O)C1C2C=CC3(CN(Cc4ccco4)C(=O)C13)O2 (configuration not stated)	12	12	2.1	0.0%	13µM*	0.5%[38.3 µM]	4.1
C=CCN(c1ccc(C(=O)OC)cc1)S(=O)(=O)c1ccccc1	15	-12	-0.5	-0.6%	8%	-3.0%	-9.4
COc1ccc(C(=O)NC(=S)Nc2ccccc2N2CCOCC2)cc1Br	6	26	0.7	-11%	-1%	-1.9%	-2.7
Cc1ccc(Cn2c(C3CCCN3c3nc(-c4cc(Cl)c(N)c(Cl)c4)cs3)nc3cc(Cl)c(Cl)cc32)cc1 (configuration not stated)	·	4	-0.3	-0.5%	·	-0.3%	·
CCOC(=O)c1cc(NC(=O)N2CCCCC2)c(C)nc1C	-3	0	0.3	0.0%	3%	0.2%	-1.0
COC(=O)Nc1ccc(S(=O)(=O)N2CCCC(C(=O)N3CCOCC3)C2)cc1 (configuration not stated)	1	-3	-0.6	2.5%	-7%	-0.8%	-0.9
COc1cc(/C=C2\SC(=S)N(C(C(=O)O)c3ccccc3)C2=O)cc(OC)c1OC (configuration not stated)	9	7	0.6	·	50µM*	0.4%	14
Cc1ccc2nc3n(c(=O)c2c1)-c1ncccc1C(=O)NC3Cc1ccccc1 (configuration not stated)	·	-4	-0.1	-6.7%	·	-0.1%	·
CCOc1ccc(OCCC(=O)OCC(=O)Nc2cc(S(=O)(=O)N3CCOCC3)ccc2OC)cc1	·	-10	-0.5	1.6%	·	0.0%	·
COCCN1C(=O)c2ccccc2C1c1nnnn1Cc1ccccc1 (configuration not stated)	·	·	-0.8	-0.9%	·	0.9%	·
CC(C)CC(=O)Nc1nnc(SCC(=O)NCc2ccco2)s1	15	-10	-0.2	-0.9%	11%	3.6%	0.5
O=C(NCC1CCCCC1)C1CCCN(C(=O)NC2CCCCC2)C1 (configuration not stated)	-6	14	-0.4	-1.4%	15%	-4.5%	-0.4
O=C(COc1ccc([N+](=O)[O-])cc1)NNC(=O)c1cccnc1	0	4	1.4	·	10%	-1.0%	-0.3
O=C1CCCN1c1ccc(C(=O)N(Cc2nnc(-c3ccc(Cl)cc3)o2)C2CC2)cc1	-8	6	0.2	0.9%	·	0.7%	·
CN(C)c1ccc(CNCC2CCCO2)cc1 (configuration not stated)	13	-4	0.2	-0.2%	4%	2.0%	9.2
CCC(C)COC(c1ccccc1)(c1ccccc1)C(Oc1nc(C)cc(C)n1)C(=O)O (configuration not stated)	-25	1	-0.1	·	23%	-1.3%	-1.7
Cc1nn(C(=O)COc2ccccc2Br)c(C)c1Sc1ccccc1	·	27	2.0	1.1%	·	1.0%	·
Cc1ccc(Sc2ccc(CN3CCCCC3)cc2[N+](=O)[O-])cc1	-4	10	0.0	-0.9%	-3%	19%	0.5
COc1cc(-c2nc(Cc3c(F)cccc3Cl)no2)cc(OC)c1OC	-16	-2	3.4	?	-14%	10%[38.3 µM]	0.6
CCOC(=O)c1nn(-c2ccc(Cl)cc2)c2nc(Nc3ccccc3)cc(=O)n12	-10	-4	-0.1	-3.9%	11%	0.0%	2.2
NC(=O)Cn1c(-c2nonc2N)nc2ccccc21	-17	-11	1.3	-3.2%	15%	1.5%	6.9
O=C(c1cc2ccccc2[nH]1)N1O[C@@H]2C=C[C@H]1C2	·	36	-0.8	-2.4%	·	-0.8%	·
Cc1ccc(NC(=O)CCC(=O)c2cccs2)cc1	-19	29	-0.1	-2.5%	14%	-0.6%	2.0
CN(C)C1=NC[C@H](Cc2ccccc2)N1CCCC1CCCC1	?	42	1.0	-3.1%	·	1.1%	·
CNC(=O)N(O)C1N(C)C(=O)N(CC(=O)OC)C1(C)C (configuration not stated)	2	-12	0.2	-1.7%	2%	0.1%	0.6
CCOC(=O)C1CCCN(Cc2nc3ccc([N+](=O)[O-])cc3c(=O)n2-c2ccc(OC)cc2OC)C1 (configuration not stated)	8	-4	-0.9	0.7%	-3%	1.1%	1.0
CSCCC(NC(=O)c1cccc(S(=O)(=O)N2CCOCC2)c1)C(=O)Nc1ccc(F)cc1 (configuration not stated)	-17	5	0.7	0.8%	10%	1.2%	-1.0
CCC(=O)Nc1ccc(NC(=O)c2cccc(OC)c2)nc1	1	1	0.3	3.1%	16%	-0.8%	3.9
CC(C)CC(=O)Nc1nnc(SCC(=O)NCc2ccc3c(c2)OCO3)s1	8	-16	0.3	1.5%	6%	0.8%	-0.5
O=C(COC(=O)c1cc([N+](=O)[O-])ccc1N1CCOCC1)Nc1c(Cl)cccc1Cl	3	-10	-1.1	-6.2%	·	2.4%	·
CC(C)(C)CC(C)(C)NC(=O)Nc1cccc([N+](=O)[O-])c1	7	-8	1.9	-0.7%	10%	14µM*	-3.0
O=C(COC(=O)CSc1ccc2ccccc2c1)Nc1ccccc1OC(F)F	9	8	3.8	0.3%	7%	3.8%	1.9
COc1ccc(C(=O)NCCNC(C)=O)cc1S(=O)(=O)NCc1ccc(Cl)cc1	9	-10	-0.4	0.1%	10%	·	-1.1
COc1ccccc1CNC(=O)CSc1ccsc1[N+](=O)[O-]	-31	-4	1.0	-1.4%	-6%	1.0%	7.0
Cc1cccc(NC(=O)c2cc(=O)c3ccccc3o2)c1	3	-1	-1.1	0.5%	2%	5.3%	-26
CC(=O)Nc1ccc(-c2nnc(SCc3ccccc3)n2C)cc1	·	·	-0.1	-0.1%	·	1.1%	·
COc1cccc(C(=O)Nc2ccc(NC(=O)C3CCCCC3)nc2)c1	-3	-1	0.0	·	13%	3.4%	4.5
Cc1cccc2c(=O)cc(C)n(Cc3ccccc3)c12	5	10	3.6	-11%	-14%	?	5.3
Cc1noc(C)c1S(=O)(=O)N1CCC(C(=O)N2CCN(c3cccc(C(F)(F)F)c3)CC2)CC1	·	0	-0.4	-1.2%	·	3.2%	·
Cc1ccc(CNC(=O)c2cc3c(s2)CS(=O)(=O)C3)cc1	-18	18	0.6	-4.2%	15%	1.4%	·
CCCn1c2ccccc2c2cnn(CC(=O)NC(CCSC)C(=O)OC)c(=O)c21 (configuration not stated)	·	38	1.7	4.6%	·	5.7%	·
COc1ccc(/C(C)=N/NC(=O)C2CC2)cc1	2	2	-0.9	0.7%	?	-0.5%	-1.8

(next part)
SMILES	TRPV1 potentiator	TRPML1 blocker	TRPML1 ag	ClpP mod	Sfp inh	PINK1 expr mod	Menin MLL FP FL
CC(=O)Nc1ccc(S(=O)(=O)N2CCN(c3cc(C)nc4ccccc34)CC2)cc1	1	-10	0.4	-5.7%	10%	0.1%	4.3
CC(=O)Nc1ccc(NC(=O)C2CC(=O)N(Cc3ccco3)C2)cc1 (configuration not stated)	-5	-3	-0.3	-0.7%	·	2.7%	·
C=CCN1C(=O)C2C3C=CC(C2C1=O)C1C2C(=O)N(CC=C)C(=O)C2C31 (configuration not stated)	1	-11	1.5	·	5%	-1.0%	-4.6
Cc1ccc(CNC(=O)Nc2cn(CC(C)C)c(=O)c3ccccc23)cc1	·	50	2.6	3.6%	·	-4.0%	·
